From PubChem
TRPML1 ag: human mucolipin-1 channel agonism. 410,000 compounds, 0.12% hits. activation, % (concentration not given with the values). TRPML1-expressing cells, Ca2+ dye fluorescence, FDSS; host cell line not named in the record; reference of the full effect not given here; in the data active = activation above about 50%; inconclusive = about 30% to 50%; inactive = below about 30%; also: 0% is about no effect; the text of the record puts the active cut at 80%
Target sequence (Q9GZU1 whole entry, looked up): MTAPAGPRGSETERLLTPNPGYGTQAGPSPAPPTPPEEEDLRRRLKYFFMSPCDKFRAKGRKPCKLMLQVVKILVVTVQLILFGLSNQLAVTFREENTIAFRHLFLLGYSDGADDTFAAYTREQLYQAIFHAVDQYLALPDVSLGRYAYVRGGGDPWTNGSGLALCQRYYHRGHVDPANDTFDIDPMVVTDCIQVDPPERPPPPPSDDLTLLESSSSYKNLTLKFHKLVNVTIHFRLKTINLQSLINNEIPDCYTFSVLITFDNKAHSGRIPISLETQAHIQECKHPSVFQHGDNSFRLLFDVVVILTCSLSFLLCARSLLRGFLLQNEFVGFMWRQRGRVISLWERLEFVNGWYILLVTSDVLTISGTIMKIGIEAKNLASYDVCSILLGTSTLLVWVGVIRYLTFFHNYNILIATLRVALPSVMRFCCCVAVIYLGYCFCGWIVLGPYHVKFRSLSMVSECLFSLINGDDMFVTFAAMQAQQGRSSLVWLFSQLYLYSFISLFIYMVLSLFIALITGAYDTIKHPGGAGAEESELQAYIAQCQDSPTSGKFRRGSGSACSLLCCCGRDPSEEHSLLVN
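In this qHTS format, compounds were pin-transferred onto Ca8-dye-loaded TRPML1-DL cells induced with Tet overnight, and intracellular Ca2+ fluorescence was recorded kinetically for 110 s after a 10 s baseline. A subsequent 4uM final 54-4 (EC80) addition followed by a second 110 s read served as the antagonist phase.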
gsp ag: agonists of gsp mutant (McCune-Albright syndrome); 340,000 compounds, 0.13% hits; Potency, µM (highest dose often 76.9 µM), inactives show at the top dose activation (cAMP increase), actives largely listed as activators; gsp mutant cells, cAMP HTRF, 30 min; control for the full effect not named in the record; active = well fitted activation curve with a large enough effect; inconclusive = small, poorly fitted or top-dose-only effect, or another doubt; inactive = no such curve, though single readings can be large or run the other way; cell line not stated here;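 also: phosphodiesterase inhibitor Ro 20-1724 added with compounds to block cAMP breakdown; potency is read from the fitted curve at half-maximal effect; nearly all actives have a fitted effect of over 60% in size; about a fifth of the inactives were tested at one dose only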
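Cells in DMEM/10% FBS with G418 were pretreated with compounds in DMSO plus […] (300 uM stock) for 30 min at 37C. cAMP was measured by HTRF (cAMP-d2 plus anti-cAMP antibody-K) after 30 min at room temperature.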
gsp antag: antagonists of gsp mutant (McCune-Albright syndrome); Potency, µM (titrated, usually from 76.9 µM), without a hit: at the top dose activity change, negative = inhibition, usual class: inhibitors; gsp-mutant cells, cAMP HTRF, 30 min; control for the full effect not named in the record; AID 624288; 340,000 compounds, 0.4% hits; active = falling curve of any shape with a large fitted effect; inconclusive = falling curve, mostly with a smaller effect; inactive = flat or rising curve; cell line not stated here;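 also: intracellular cAMP measured with PDE inhibitor Ro 20-1724 present during compound exposure; potency is read from the fitted curve at half-maximal effect; % is scaled to controls: 0 for no effect and ±100 for the full control effect; nearly all actives have a fitted effect of over 65% in size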
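G418-selected cells were plated in DMEM/10% FBS for 16-24 h at 37C, then treated with compounds plus the PDE inhibitor […] (300 uM solution added) for 30 min at 37C. Intracellular cAMP was measured by HTRF after 30 min lysis at room temperature.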
ClpP mod: qHTS Assay for Activators of ClpP. ATP-dependent Clp protease proteolytic subunit (Bacillus subtilis (strain 168)), P80244. purified B. subtilis ClpP, FRET peptide cleavage, 20 min. Potency, µM (doses to about 57.5 µM), for the others: at the highest dose activity change, negative = active. 340,000 compounds, 1.9% hits; active = well fitted falling curve with a large enough effect; inconclusive = small, poorly fitted or top-dose-only effect; inactive = no such curve, though single readings can be large or run the other way; also: potency is read from the fitted curve at half-maximal effect; the source files actives as falling curves though it sought activators and does not explain the sign; nearly all actives have a fitted effect of over 65% in size; many hits overshoot -100%
Target sequence (P80244 whole entry, looked up): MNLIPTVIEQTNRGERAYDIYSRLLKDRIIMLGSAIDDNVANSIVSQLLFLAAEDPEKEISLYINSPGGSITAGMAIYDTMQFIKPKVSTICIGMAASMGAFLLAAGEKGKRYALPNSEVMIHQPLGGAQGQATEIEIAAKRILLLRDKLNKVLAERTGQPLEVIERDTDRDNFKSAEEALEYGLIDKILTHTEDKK
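Purified B. subtilis ClpP, 10 microg/mL final in Tris/HCl pH8 with KCl, BSA, glycerol and Tween-20, cleaved an Abz/nitrotyrosine-quenched decapeptide. Fluorescence (ex 320, em 430) was read at 0 and 20 min at room temperature. Delta was normalized to 5.8 microM ADEP and DMSO/no-enzyme controls.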
Menin MLL FP FL: menin-MLL binding inhibition, fluorescein peptide | Fluorescence polarization, fluorescein-MLL peptide displacement from menin | FP activity change, % at 61.4 µM | 290,000 tested, under 10 active; inconclusive = falling polarisation curve, or a change in total fluorescence; inactive = total fluorescence flat and polarisation flat or rising; no compound was filed as active; the % refers to the polarisation; negative = inhibition;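 also: % of control where 0% means no effect; inhibitors lower the polarisation; unlabelled MLL peptide was the positive control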
TRPML1 blocker: blocks the human TRPML1 channel; Q9GZU1; TRPML1-inducible cells, Ca2+ dye fluorescence, FDSS; active compounds read low; inhibition of EC80 agonist-evoked calcium signal; activity change, negative = inhibition, % (concentration not given with the values); 390,000 compounds, 0.02% hits; AID 624415; in the data active means activity change below about -50%; inconclusive means about -30% to -50%; inactive means above about -30%;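 also: stimulus is agonist 54-4 at its EC80 concentration; % is scaled to controls: 0 for no effect and ±100 for the full control effect; the text of the record puts the active cut at -80%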
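Tet-induced TRPML1-DL cells loaded with Ca8 no-wash calcium dye were read kinetically on FDSS. Compound addition was followed by EC80 agonist 54-4 (4 uM final); inhibition was read over 110 s.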
An asterisk follows results filed as active; ? = inconclusive; · = no result given; [ ] = another dose, or the depositor's remark.

SMILES	TRPML1 ag	gsp ag	gsp antag	ClpP mod	Menin MLL FP FL	TRPML1 blocker
Cn1c(C(=O)Nc2ccc3c(c2)OCO3)cc2sccc21	-0.3	?	-8%	1.3%	0.3	6
COC(=O)CN(c1nc(C)c(Br)c(OC)n1)S(=O)(=O)c1ccc(C)cc1	1.9	7%	-21%	1.2%	1.3	8
Cc1nn(C)c2c(=O)c(=O)c2n(C)[nH]1	0.1	34%	3%	·	0.6	-24
N#C/C(=C\c1cn(CC(=O)N2CCCCC2)c2ccccc12)C(=O)NCc1ccc2c(c1)OCO2	2.3	-9%	5%	-1.8%	11	11
O=C(Nc1cccc(S(=O)(=O)Nc2ccccc2Cl)c1)c1ccc(N2CCCC2)c([N+](=O)[O-])c1	-0.5	-17%	-16%	-0.4%	4.4	-1
Nc1ccccc1-c1nnc(SCC(=O)Nc2ccccc2OC(F)F)[nH]c1=O	0.7	?	5%	0.8%	·	5
CC(C)CCNC(=O)CN1C(=O)CCn2nc(-c3cn(C)c4ccccc34)cc21	0.3	·	·	-8.8%	·	-6
CC(=O)NC1(C(F)(F)F)NC(=O)N(CC(C)C)C1=O (configuration not stated)	0.8	8%	-11%	-0.5%	-3.6	7
Cc1cc(SCC(=O)NCC(c2cccs2)N2CCOCC2)c(C)cc1Br (configuration not stated)	1.2	-1%[15.4 µM]	-14%	2.4%	·	-3
Cc1ccc(S(=O)(=O)NCCC(=O)NCc2ccccn2)cc1	0.6	-14%[15.4 µM]	-1%	·	·	-5
CCC(=O)c1ccc(OCC(=O)OCC(=O)Nc2cccc(S(=O)(=O)N3CCOCC3)c2)cc1	0.7	-7%	-14%	-1.0%	·	28
CCOc1ncccc1C(=O)OCC(=O)Nc1ccc(C)c(S(=O)(=O)N2CCOCC2)c1	2.6	?	3%	·	3.9	-1
CCOC(=O)CSc1nnc(Cn2nnc3ccccc32)n1-c1ccc(F)cc1	0.6	11%[15.4 µM]	0%	·	-0.1	17
CC(C(=O)Nc1ccccc1)N(C)CCOc1ccccc1 (configuration not stated)	0.1	-9%[15.4 µM]	2%	·	-0.4	1
N=c1ccn(Cc2cccc(F)c2)cc1	0.2	15%[15.4 µM]	-5%	0.1%	5.0	-11
Cc1ccc(/C=C(\C#N)C(=O)Nc2ccccn2)o1	-1.1	-5%[15.4 µM]	8%	1.1%	2.7	-7
COc1cc(NC(=S)N2CCCC(CO)C2)cc(OC)c1 (configuration not stated)	-0.4	-2%[15.4 µM]	5%	·	-8.9	0
S=C(NCC1CCCO1)N1CCN(c2nc(-c3ccccc3)cs2)CC1 (configuration not stated)	0.1	26%	?	-2.4%	4.2	-5
Cc1ccc(NC(=O)c2ccc(CSc3nnc(-c4ccncc4)n3C)cc2)c(C)c1	-0.3	-4%	3%	-25%	-0.3	10
COc1ccc(-c2ccccc2C2C3C=CCCC3(C)C(=O)N2Cc2ccccc2)cc1 (configuration not stated)	1.4	·	·	·	-0.5	-2
O=C(NNC(=O)c1sccc1-n1cccc1)c1ccccc1	-0.5	-21%	-7%	-0.2%	0.3	-9
Cc1cccc(NC(=S)N(CCCN2CCOCC2)Cc2ccccn2)c1	-1.8	7%[15.4 µM]	6%	-2.3%	·	-1
CCc1c(C)sc(NC(=O)c2cc(-c3ccc(O)cc3)on2)c1C#N	0.9	?	8%	4.4%	1.0	29
Cn1c(CC(=O)Nc2ccccc2F)nnc1SCC(=O)NC1CCCCC1	-0.2	-1%[15.4 µM]	2%	·	-10	11
Cc1ccc2ccccc2c1NC(=O)CNCc1ccccc1	-0.5	?	·	-3.1%	·	21
CCn1cc([N+](=O)[O-])c(C(=O)Nc2ccc(Br)cn2)n1	0.2	-34%[inhibitor]	9%	-2.2%	-1.0	-9
CC(=O)c1ccc(NC(=O)C2CCCN(c3ncnc4c3nc3n4CCCCC3)C2)cc1 (configuration not stated)	1.7	?	-7%	·	-0.9	0
N#Cc1nc(Cc2ccccc2)oc1N1CCCC1	1.3	?	0%	·	-1.6	5
CC(=O)c1ccc2c(c1)C1C=CCC1C(C(=O)O)N2 (configuration not stated)	0.1	10%	7%	·	4.5	25
Cc1occc1C(=O)Nc1cccc(C(F)(F)F)c1	0.1	31%	4%	-0.1%	-2.1	17
Cc1ccc(OCC(O)CN2CCOCC2)c(C)c1 (configuration not stated)	·	2%	12%	1.5%	-4.6	·
COc1ccc(C2N(c3cc(Cl)ccc3OC)C(=O)C3CCCN32)cc1OC (configuration not stated)	1.1	28%	4%	-1.3%	-0.4	19
Cc1cc(C)c2cc(CN(CCO)C(=O)Nc3ccc(F)cc3)c(=O)[nH]c2c1	-0.5	6%	6%	-2.0%	3.6	-1
COC(=O)COc1ccc(-n2cnnn2)cc1	-0.1	-39%[inhibitor]	-22%	·	-1.3	-5
CCN(C[C@H]1N[C@@](C)(C(=O)OC)[C@H]2C(=O)N(Cc3ccccc3)C(=O)[C@@H]12)C(=O)c1ccccc1	1.1	·	-6%	-1.8%	·	7
O=C(Nc1cccnc1Cl)c1cccc(S(=O)(=O)N2CCOCC2)c1	0.7	17%	6%	0.7%	2.0	6
COC(=O)c1[nH]c(C)c(/C(O)=C2\C(=O)C(=O)N(CCN(C)C)C2c2ccccc2OC)c1C (configuration not stated)	0.2	?	6%	-6.7%	-0.2	-6
COc1ccc(C(=O)N2CCN(C(C)=O)CC2)cc1S(=O)(=O)NCc1ccc(Cl)cc1	1.0	-1%	13%	-0.4%	2.3	7
CCc1ccccc1NC(=O)C1CCCN(S(=O)(=O)c2c(C)noc2C)C1 (configuration not stated)	-0.2	4%	-8%	0.8%	4.5	5
O=C(NCc1ccco1)/C(=C/c1ccc(Cl)cc1)NC(=O)c1ccco1	0.7	10%	-1%	·	0.6	-13
COc1ccc(CNC(=O)C2CCC(=O)N2C(C)C)c(OC)c1 (configuration not stated)	·	31%	6%	0.1%	0.9	·
NC(=O)Nc1cc(Cl)ccc1Cl	-0.2	-3%[15.4 µM]	12%	-1.9%	3.0	-15
Cc1ccc(S(=O)(=O)N/N=C/c2ccc(C(=O)O)cc2)cc1	-0.8	-37%[inhibitor]	-6%	-2.6%	-1.9	8
CC(Nc1nc(-c2ccc(F)cc2)cs1)c1nc2cc(Cl)c(Cl)cc2n1CCCO (configuration not stated)	-0.1	-31%[inhibitor]	-6%	1.1%	·	-13
CN1C(=O)CSc2ccc(NC(=O)NCc3cccnc3)cc21	-0.6	-5%	0%	0.1%	5.2	1
Cc1cc(=O)oc2cc(OCC(=O)N3CCN(C(=O)C4COc5ccccc5O4)CC3)c(Cl)cc12 (configuration not stated)	-0.8	29%	?	-14%	·	-7
CC(=O)c1ccc(S(=O)(=O)N2CCn3cccc3C2c2ccc(C)cc2)cc1 (configuration not stated)	0.2	·	·	-4.7%	·	10
Cc1ccc(CSCCNC(=O)c2cccc([N+](=O)[O-])c2)cc1	0.8	-42%	-7%	-4.7%	-15	20
CCOc1ccc(CCNC(=O)c2cc(C)nc3ccccc23)cc1OCC	0.5	-5%	-1%	-0.4%	·	8
COc1ccc(C(=O)NCCN2CCCC2)cc1[N+](=O)[O-]	0.4	8%[15.4 µM]	5%	-3.2%	3.0	0
COc1ccc(NC(=O)CSCC(=O)NCc2cccc(C(F)(F)F)c2)cc1	2.1	-6%	4%	1.2%	·	-20
CC1(C)CC(=O)C(N=Nc2cc(Cl)c(Cl)c(Cl)c2)=C(O)C1	0.0	-3%	-15%	-0.7%	1.8	2
CNC(=S)NNC(=O)Cc1ccc(OC)c(OC)c1	-0.2	-71%[inhibitor]	-8%	-8.3%	0.2	-1
COc1cccc(NC2=CC(=O)CC(C)(C)C2)c1	-0.4	?	-10%	-3.0%	1.5	-2
Cc1ccc2c(c1)N(Cc1cccc(C#N)c1)C=NS2(=O)=O	-0.6	-24%[15.4 µM]	6%	·	-2.7	4
Cc1cc(-c2csc(N)n2)c(C)n1-c1ccc(Cl)c(Cl)c1	-0.7	-14%[15.4 µM]	2%	-7.6%	7.3	-3
Cc1nnc(SCC(=O)N/N=C/c2ccc(-c3ccc(C)c(Cl)c3)o2)s1	-0.7	-4%	-20%	-10%	1.2	11
CCc1c(C)nc(SC(C(=O)O)c2ccccc2)c(C#N)c1C (configuration not stated)	0.2	-17%	-6%	-1.4%	1.3	8
COc1ccc(N(C(=O)c2ccco2)C(C(=O)NC2CCCC2)c2cc(OC)c(OC)c(OC)c2)cc1 (configuration not stated)	0.6	-9%[15.4 µM]	6%	·	1.0	1
O=C(c1ccc(S(=O)(=O)N2CCCCCC2)cc1)N1CCN(c2ccccc2)CC1	-1.5	24%[15.4 µM]	-22%	0.0%	-3.4	-17

Following part:
SMILES	TRPML1 ag	gsp ag	gsp antag	ClpP mod	Menin MLL FP FL	TRPML1 blocker
CCOc1ccc(OCC)c(NC(=O)CCn2c(=O)oc3ccccc32)c1	-0.8	-15%	-19%	1.5%	4.7	-2
CC1C(=O)N2CCCc3cc(S(=O)(=O)Nc4ccccc4F)cc1c32 (configuration not stated)	-0.8	1%	6%	-1.0%	·	6
c1ccc2[nH]c(-c3cscn3)nc2c1	0.4	·	8%	-19%	3.5	-8
Cc1cccc([C@@H]2[C@@H]3C(=O)N(Cc4ccccc4)C(=O)[C@@H]3[C@]3(C)C(=O)N(c4cccc(Cl)c4)C(=O)N23)c1	0.1	?	-9%	0.4%	-4.5	-4
COc1cccc(NC(=O)CC2C(=O)OCCN2Cc2ccccc2)c1 (configuration not stated)	1.5	·	·	1.5%	·	0
Cc1ccc(OCC(=O)Nc2cc(C(C)(C)C)on2)cc1C	-0.2	?	4%	0.8%	·	-8

5 compounds out of the list, ordered by number of heavy atoms, highest first:
SMILES	TRPML1 ag	gsp ag	gsp antag	ClpP mod	Menin MLL FP FL	TRPML1 blocker
COc1ccc(N(C(=O)c2ccco2)C(C(=O)NC2CCCC2)c2cc(OC)c(OC)c(OC)c2)cc1 (configuration not stated)	0.6	-9%[15.4 µM]	6%	·	1.0	1
O=C(c1ccc(S(=O)(=O)N2CCCCCC2)cc1)N1CCN(c2ccccc2)CC1	-1.5	24%[15.4 µM]	-22%	0.0%	-3.4	-17
CCOc1ccc(OCC)c(NC(=O)CCn2c(=O)oc3ccccc32)c1	-0.8	-15%	-19%	1.5%	4.7	-2
COc1cccc(NC(=O)CC2C(=O)OCCN2Cc2ccccc2)c1 (configuration not stated)	1.5	·	·	1.5%	·	0
CC1C(=O)N2CCCc3cc(S(=O)(=O)Nc4ccccc4F)cc1c32 (configuration not stated)	-0.8	1%	6%	-1.0%	·	6
